Bm FixLJ act – increases Burkholderia fixLJ two-component signaling; B. multivorans fixK-promoter GFP reporter, 18 h; active compounds read high; z-score (no concentration beside the values); 0.3% of 29,000 active; AID 1918990;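 active = replicate mean overnight rise in green fluorescent reporter signal, 3 or more SD over negative controls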;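 note: score is relative to vehicle wells of the plate; 300 nL library stock went into each well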
Active calls of the source: *.

Screening O=C(c1nnc2n1CCCC2)N1CCc2nc(-c3ccccc3)[nH]c2C1 returned Bm FixLJ act -0.12.
For O=C(NC1CCCNC1)c1cc(-c2ccco2)nc2c(Cl)cccc12 (stereo unspecified) the results were Bm FixLJ act -0.58.
For CCC1CN(C(=O)c2csc(-n3nc(C)cc3C(F)(F)F)n2)CC[C@@]1(C)O (stereo partly specified) the results were Bm FixLJ act -1.4.
CC1=C(C(=O)Nc2ccc(Cl)cc2)C(c2ccccc2C)n2ncc(C(=O)Nc3ccc(C)cc3)c2N1 (stereo unspecified) was read as Bm FixLJ act -0.19.
COc1cc(Nc2nc3c(S(=O)(=O)c4ccccc4)nnn3c3ccc(Cl)cc23)cc(OC)c1 was read as Bm FixLJ act -0.01.
`Cc1ccc(Cl)cc1N1CCN(C(=O)c2ccc3c(c2)N(Cc2ccc(F)cc2)CCS3)CC1` gave Bm FixLJ act 0.35.
Screening Cc1cc(C)cc(OCc2ccc(C(=O)Nc3ccccc3F)o2)c1 returned Bm FixLJ act -2.2.
COc1ccccc1Oc1nc2c(c(=O)n(C)c(=O)n2C)n1Cc1cccc(Br)c1 was read as Bm FixLJ act -0.64.
Screening CC(C)=CCOC1COCCC1NC(=O)CN(C)Cc1ccc(F)cc1 (stereo unspecified) returned Bm FixLJ act 1.4.
For CCCOc1cccc(C2c3c(oc4ccccc4c3=O)C(=O)N2c2nncs2)c1 (stereo unspecified) the results were Bm FixLJ act -1.5.
For CC(=O)N1CC[C@]2(O)CCN(C(=O)CN3CCCCCC3)C[C@H]2C1 the results were Bm FixLJ act 0.33.
Oc1cccc(Nc2nc(-c3ccccc3)nc3ccccc23)c1 was read as Bm FixLJ act -5.2.
For Cc1cccc(-c2noc(CN(C(=O)COc3ccc(Br)cc3C)C(C)C)n2)c1 the results were Bm FixLJ act -0.12.
Screening Cc1c(/C=C(\C#N)C(=O)Nc2cccc(Cl)c2)c2ccccc2n1Cc1ccccc1Cl returned Bm FixLJ act -3.9.
COc1ccccc1N1CCN(C(=O)c2cccc(OCC(N)=O)c2)CC1=O was read as Bm FixLJ act -0.27.

Compounds shown so far containing sulfur:
For CCC1CN(C(=O)c2csc(-n3nc(C)cc3C(F)(F)F)n2)CC[C@@]1(C)O (stereo partly specified) the results were Bm FixLJ act -1.4.
COc1cc(Nc2nc3c(S(=O)(=O)c4ccccc4)nnn3c3ccc(Cl)cc23)cc(OC)c1 was read as Bm FixLJ act -0.01.
`Cc1ccc(Cl)cc1N1CCN(C(=O)c2ccc3c(c2)N(Cc2ccc(F)cc2)CCS3)CC1` gave Bm FixLJ act 0.35.
For CCCOc1cccc(C2c3c(oc4ccccc4c3=O)C(=O)N2c2nncs2)c1 (stereo unspecified) the results were Bm FixLJ act -1.5.

Going on with the list:
`COc1ccc(C(C)Nc2ncc(C)c(N(C)C)n2)cc1C` (stereo unspecified) gave Bm FixLJ act -0.17.
`O=C(c1ccc(CO)cc1)N1CC2c3ccccc3OC[C@]2(C(=O)O)C1` (stereo partly specified) gave Bm FixLJ act 0.75.
CCN(C(=O)c1cc(COc2ccccc2OC)[nH]n1)C(C)C was read as Bm FixLJ act -0.95.
For CCc1ccc(C2CC(=O)c3c([nH]c(C(=O)OC4CCCC4)c3C)C2)cc1 (stereo unspecified) the results were Bm FixLJ act -1.
For CC(C)(C)C(=O)Cn1c(=O)n(CCCCCC(=O)NCc2ccc3c(c2)OCO3)c(=O)c2sccc21 the results were Bm FixLJ act -1.4.
Screening CCOc1ccc(Nc2nc3c(S(=O)(=O)c4ccc(CC)cc4)nnn3c3ccc(Cl)cc23)cc1 returned Bm FixLJ act -0.34.
`CCOc1ccc(CN(C(=O)c2nc(SC)ncc2Cl)C2CCS(=O)(=O)C2)cc1` (stereo unspecified) gave Bm FixLJ act -0.33.
CNC(=O)C1CC(NC(=O)c2cc(C)n(-c3ccccc3)c2C)CN1C (stereo unspecified) was read as Bm FixLJ act -1.3.
For COc1cccc(NC(=O)C2CCN(S(=O)(=O)c3c(C)noc3/C=C/c3cccs3)CC2)c1 the results were Bm FixLJ act -0.42.
For COc1cc(C(=O)Nc2nc3c(s2)Cc2c(Br)ccc(OC)c2-3)cc(OC)c1OC the results were Bm FixLJ act 0.38.
`CCN(C(=O)c1nn(-c2ccc(OC)c(Cl)c2)c(=O)c2c1c1ccccc1n2C)c1cc(OC)ccc1OC` gave Bm FixLJ act -0.06.
Screening CCc1nc2nc(C)cc(Nc3ccc(Br)cc3F)n2n1 returned Bm FixLJ act 1.3.
`Cc1ccccc1OCCn1c(CCNC(=O)C(C)(C)C)nc2ccccc21` gave Bm FixLJ act -2.
For CCCCCOc1ccccc1Cn1c(=O)oc2ccc(C)cc21 the results were Bm FixLJ act 0.14.
`CC(C)c1nnc(N2CCC3(CCC(=O)N(CCN(C)C)C3)CC2)s1` gave Bm FixLJ act -1.6.
Screening Cc1cccc(C)c1NC(=O)Cn1c(=O)n(CCC(=O)NCc2ccccc2Cl)c(=O)c2sccc21 returned Bm FixLJ act -1.2.
Screening Cc1ccc(S(=O)(=O)c2nnn3c2nc(NC(C)C)c2cc(Cl)ccc23)cc1C returned Bm FixLJ act 0.03.
CCOc1ccccc1NC(=O)C(Cc1ccccc1)NS(=O)(=O)c1ccc(Br)s1 (stereo unspecified) was read as Bm FixLJ act 2.5.
For CCn1ncnc1C(NC(=O)CSc1ccncc1)C1CC1 (stereo unspecified) the results were Bm FixLJ act 0.37.
Screening COc1ccccc1CNC(=O)CS(=O)(=O)Cc1nc(-c2ccccc2C)oc1C returned Bm FixLJ act -0.34.
Screening CO[C@H]1C[C@@H]2CC[C@@H](C)[C@@](O)(O2)C(=O)C(=O)N2CCCC[C@H]2C(=O)O[C@H]([C@H](C)C[C@@H]2CC[C@@H](O)[C@H](OC)C2)CC(=O)[C@H](C)/C=C(\C)[C@@H](O)[C@@H](OC)C(=O)[C@H](C)C[C@H](C)/C=C/C=C/C=C/1C returned Bm FixLJ act -1.3.
Screening COCCc1nc(-c2cncs2)n(CC2COCCO2)n1 (stereo unspecified) returned Bm FixLJ act -1.4.
`Brc1ccc2nc(SCCOc3ccccc3)[nH]c2c1` gave Bm FixLJ act -2.7.
`COc1cccc(NC(=O)CCN2CCN(c3ccccc3)CC2)c1` gave Bm FixLJ act -0.58.
For CC(C)c1ccc(CN2CCn3nc(CNC(=O)C4CCC4)cc3C2)cc1 the results were Bm FixLJ act -0.67.
For COc1ccc(-n2nc(Cc3ccccc3)n(CC(=O)NC(C)C3CC3)c2=O)cc1 (stereo unspecified) the results were Bm FixLJ act 0.05.
For CC(=O)c1ccc(Nc2nc3ccccc3nc2-n2nc(C)cc2C)cc1 the results were Bm FixLJ act -0.91.
For Cc1ccc(NC(=O)CN2C(=O)CC(C)Sc3ccccc32)c(C)c1 (stereo unspecified) the results were Bm FixLJ act -0.58.
Screening COc1cc(OC)c2c(C)c(CC(=O)NCc3ccccc3OC)c(=O)oc2c1 returned Bm FixLJ act -2.
For Cc1cc(F)ccc1NC(=O)C1CCN(C(=O)c2cnn(-c3ccccc3)c2-n2cccc2)CC1 the results were Bm FixLJ act -2.2.

The final five entries of the section above open the next one:
For COc1ccc(-n2nc(Cc3ccccc3)n(CC(=O)NC(C)C3CC3)c2=O)cc1 (stereo unspecified) the results were Bm FixLJ act 0.05.
For CC(=O)c1ccc(Nc2nc3ccccc3nc2-n2nc(C)cc2C)cc1 the results were Bm FixLJ act -0.91.
For Cc1ccc(NC(=O)CN2C(=O)CC(C)Sc3ccccc32)c(C)c1 (stereo unspecified) the results were Bm FixLJ act -0.58.
Screening COc1cc(OC)c2c(C)c(CC(=O)NCc3ccccc3OC)c(=O)oc2c1 returned Bm FixLJ act -2.
For Cc1cc(F)ccc1NC(=O)C1CCN(C(=O)c2cnn(-c3ccccc3)c2-n2cccc2)CC1 the results were Bm FixLJ act -2.2.
Screening CCN(CC)c1ccc(NC(=O)Cn2c(C)c3cnn(-c4ccccc4)c(=O)c3c2C)c(C)c1 returned Bm FixLJ act -2.2.
O=C(O)CCNC(=O)N1CCCC(C(=O)c2ccccn2)C1 (stereo unspecified) was read as Bm FixLJ act 0.36.
Cc1cccn2c(=O)c3cc(C(=O)N(Cc4ccccc4)C(C)C)sc3nc12 was read as Bm FixLJ act -0.51.
`COc1ccc(C)cc1C(=O)N1CC(O)C(Cc2ccnc3ccccc23)C1` (stereo unspecified) gave Bm FixLJ act 1.
CCC(=O)N1CCc2cc(Br)cc(S(=O)(=O)CCC(=O)N3CCN(c4ccc(F)cc4)CC3)c21 was read as Bm FixLJ act 3.7*.
Screening COc1ccc(CNC(=O)c2cc3c(=O)n(C)c4ccccc4c3n2C)cc1 returned Bm FixLJ act -0.65.
Screening CCCN1CCc2[nH]cnc2C12CCN(Cc1cnc(CC3CCCC3)[nH]1)CC2 returned Bm FixLJ act -0.51.
CCN(c1ccccc1)S(=O)(=O)c1ccc(NC(=O)c2nc(S(C)(=O)=O)ncc2Cl)cc1 was read as Bm FixLJ act 0.13.
For COc1nccnc1NCC1CN(CC2CCN(CC3CC3)CC2)C(=O)CO1 (stereo unspecified) the results were Bm FixLJ act -0.31.
COCCCN1C(=O)c2[nH]nc(-c3cc(C)ccc3O)c2C1c1ccc(F)cc1 (stereo unspecified) was read as Bm FixLJ act -4.
For CCOc1ccc(-n2c(=O)c3c(C)c(C)sc3n(CC(=O)C(C)(C)C)c2=O)cc1 the results were Bm FixLJ act -1.8.
Screening CN1CCc2nc3sc(C(=O)Nc4cccc(C#N)c4)c(N)c3cc2C1 returned Bm FixLJ act 0.61.
`CC(=O)Nc1ccc(S(=O)(=O)NC2(C(F)(F)F)NC(=O)N(CCc3ccc(F)cc3)C2=O)cc1` (stereo unspecified) gave Bm FixLJ act 1.1.
Screening Cc1ccc(N2C(=O)CC(c3ccccc3F)C3=C2COC3=O)cc1Cl (stereo unspecified) returned Bm FixLJ act -0.09.
`COc1ccc(NC(=O)Cn2c(=O)n(Cc3ccco3)c(=O)c3sc4ccccc4c32)cc1Cl` gave Bm FixLJ act -1.2.
CCOc1ccc(/C=C/c2nc(C#N)c(Nc3ccc(OC)cc3)o2)cc1 was read as Bm FixLJ act -0.79.
CCOc1nc2cccc(C(=O)O)c2n1Cc1ccc(-c2ccccc2-c2nn[nH]n2)cc1 was read as Bm FixLJ act -1.7.
Screening CN(C)C(=O)N1CCCn2nc(CNC(=O)C3C4CCC(C4)C3N)cc2C1 (stereo unspecified) returned Bm FixLJ act 2.4.
`O=c1[nH]c(C2CCCN(S(=O)(=O)c3ccccc3)C2)nc2c1nnn2Cc1ccc(OC(F)(F)F)cc1` (stereo unspecified) gave Bm FixLJ act -0.35.
CCOC(=O)c1ccc(N2C(=O)c3n[nH]c(C)c3C2c2cccc(Br)c2)cc1 (stereo unspecified) was read as Bm FixLJ act -0.14.
Screening CCOc1ccc2oc(=O)cc(CN3CCN(c4ccccc4)CC3)c2c1 returned Bm FixLJ act -0.91.
Cc1ccc2ncccc2c1CNC(=O)c1cc(=O)n(-c2ccccc2)[nH]1 was read as Bm FixLJ act -2.2.
Screening CNC(=O)CCc1ccccc1NC(=O)c1oc2cc(C)ccc2c1C returned Bm FixLJ act -0.07.
`O=C(C1CCC(CNS(=O)(=O)c2ccc(Br)s2)CC1)N1CCN(c2ccc(F)cc2)CC1` (stereo unspecified) gave Bm FixLJ act -0.47.
Cc1ccc(Nc2c(-c3ccncc3)nc3ccc(C)cn23)cc1 was read as Bm FixLJ act -0.27.
Screening CCOc1ccccc1NC(=O)CC1C(=O)NCCN1C(=O)c1ccc(F)cc1 (stereo unspecified) returned Bm FixLJ act 0.25.
Screening Cc1ccn2c(Nc3ccccc3C)c(-c3ccccn3)nc2c1 returned Bm FixLJ act -0.24.
`Cc1ccc(Cl)cc1NC(=O)CN(C)S(=O)(=O)c1ccc2c(c1)n(C)c(=O)c(=O)n2C` gave Bm FixLJ act -0.53.
`Cc1cc(SCC(=O)Nc2ccc(Cl)cc2)nc2ccccc12` gave Bm FixLJ act 1.1.
For O=C(NC1CCOCC1OCc1cscn1)c1cccc(Cl)c1 (stereo unspecified) the results were Bm FixLJ act -0.71.

The closing 2 entries of the part before are carried over, then new ones follow:
`Cc1cc(SCC(=O)Nc2ccc(Cl)cc2)nc2ccccc12` gave Bm FixLJ act 1.1.
For O=C(NC1CCOCC1OCc1cscn1)c1cccc(Cl)c1 (stereo unspecified) the results were Bm FixLJ act -0.71.
`Cc1ccccc1Nc1c(-c2ccc(Cl)s2)nc2c(C)cccn12` gave Bm FixLJ act 0.45.
Screening N#Cc1ccc(CN2CCCC(CNC(=O)Cc3ccc(F)cc3)C2)cc1 (stereo unspecified) returned Bm FixLJ act -0.28.
For COc1cc2c(cc1OC)C1(CCN(C(=O)C3CCC(O)CC3)CC1)OCC2 (stereo unspecified) the results were Bm FixLJ act -1.1.
Screening O=C(c1ccc(=O)[nH]c1)N1CC2CCC(C1)N(CC1CCC1)C2=O (stereo unspecified) returned Bm FixLJ act 0.75.
CCc1ccccc1Nc1cc(C(=O)NC2CCC(C)CC2)c2ccccc2n1 (stereo unspecified) was read as Bm FixLJ act -2.1.
CCN(Cc1nccn1C)C(=O)CC1C(=O)NCCN1Cc1cccs1 (stereo unspecified) was read as Bm FixLJ act -0.64.
For COC(=O)c1ccc(C2c3c(-c4ccccc4O)n[nH]c3C(=O)N2Cc2ccncc2)cc1 (stereo unspecified) the results were Bm FixLJ act -1.4.
Screening COc1ccc(-c2nc3c([nH]2)CN(C(=O)C(C)Cn2cccn2)CC3)cn1 (stereo unspecified) returned Bm FixLJ act -0.71.
For O=C1CN(Cc2cc3ccccc3o2)CCN1c1ccc2[nH]ncc2c1 the results were Bm FixLJ act 1.8.
COCC1CCCN1C(=O)c1cccc(-c2nc(N(C)C)n(C)n2)c1 (stereo unspecified) was read as Bm FixLJ act -1.3.
Screening COc1cc(S(=O)(=O)N2CCC(O)[C@@](CC3CC3)(C(=O)O)C2)c(OC)cc1C (stereo partly specified) returned Bm FixLJ act 1.6.
For Cc1ccc(NC(=O)C(Cc2ccccc2)NS(=O)(=O)c2ccc3c(c2)CCC(=O)N3)cc1 (stereo unspecified) the results were Bm FixLJ act -0.92.

Screening data as filed in PubChem BioAssay.

Only part of the results is shown; rates above refer to the full screens.
